ALR inh = inhibitors of human ALR sulfhydryl oxidase, primary screen, biochemical, H2O2 detection, HRP-luminol luminescence, single point | FAD-linked sulfhydryl oxidase ALR (Homo sapiens), P55789 | purified ALR, DTT oxidation | inhibition, % (concentration not given with the values) | actives 3.8% (n = 290,000) | AID 485317, 2010;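 active = mean and each replicate at 75% or more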;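 also: stock transfer was 7.5 nL into about 7.5 µL; 0% = neutral wells and 100% = wells with inactivated enzyme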
Target sequence (P55789 whole entry, looked up): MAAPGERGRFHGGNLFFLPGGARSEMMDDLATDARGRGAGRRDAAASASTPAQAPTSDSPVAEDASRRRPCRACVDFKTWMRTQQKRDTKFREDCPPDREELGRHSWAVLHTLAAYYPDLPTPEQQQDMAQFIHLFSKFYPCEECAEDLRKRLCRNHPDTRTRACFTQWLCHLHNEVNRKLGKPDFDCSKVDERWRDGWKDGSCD
Vif TR-FRET = inhibitors of Vif binding to APOBEC3G peptide, primary screen, biochemical, TR-FRET, GST-Vif 1-94, biotin-A3G peptide, dose response retest (AID 1117319) | Virion infectivity factor (Human immunodeficiency virus type 1 group M subtype B (isolate … | TR-FRET GST-Vif / biotin-A3G peptide binding; higher % means a stronger effect; test concentration not given here; strong numbers were not always called active | one-dose inhibition, %; IC50 in µM for titrated hits | actives 0.57% (n = 260,000);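 active = above the screen mean plus three standard deviations and confirmed in dose response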;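 also: Vif residues 1-94 fused to GST binding biotinylated APOBEC3G peptide 110-148; 0% = full assay without inhibitor and 100% = GST in place of GST-Vif; retest series ran down from 100 µM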
rRNA inh HTS = reduced GFP signal of wild-type E. coli, primary screen, bacterial rRNA inhibitor project, GFP/RFP fluorescence, OD600, single point; actives 1.6% (n = 350,000); GFP signal change (wild-type ribosome), % (test concentration not listed); E. coli WT GFP vs humanized-ribosome RFP mutants, 24 h; hits give low values; DMSO median 0, no signal -100;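 active = significant combined selectivity score with lowered wild-type GFP, culture density cut under 30%, mutant RFP and density less affected; inactive = any of these conditions unmet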; also: one replicate is shown; some compounds called inactive have numbers as strong as hits
FGF22 binding = binders of human FGF22 protein, primary screen, FGF22 synaptogenesis inhibitor project, biophysical, thermal shift, single point. Fibroblast growth factor 22 (Homo sapiens), Q9HCT0. AID 651658, 2012. recombinant FGF22 thermal shift, SYPRO orange fluorescence; percent of sucrose octasulfate shift, DMSO zero. actives 1.5% (n = 340,000). calls only at 9.99 µM;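 active = melting point raised past a set limit in the mean and every replicate; three in four hits are not shown here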
Target sequence (Q9HCT0 whole entry, looked up): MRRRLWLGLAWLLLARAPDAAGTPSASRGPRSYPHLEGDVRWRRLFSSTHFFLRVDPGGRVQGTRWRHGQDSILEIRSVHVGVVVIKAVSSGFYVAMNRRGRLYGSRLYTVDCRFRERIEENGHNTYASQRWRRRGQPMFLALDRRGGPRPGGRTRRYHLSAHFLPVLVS
MLL AF4-AF9 inh = inhibitors of AF4 peptide binding to AF9, primary screen, biochemical, AlphaScreen, biotin-AF4 peptide, FLAG-AF9, single point | actives 0.47% (n = 350,000) | Protein AF-9 (Homo sapiens), P42568 | AID 651704, 2012 | inhibition, % at 10 µM;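 active = every replicate reaching a set inhibition limit, whatever the replicate mean, cut at about 25% in these data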;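 also: 0% = plate neutral control median and 100% = total signal loss; the record names both 10 and 1 µM as test concentration; the first replicate is given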
HNF4A DNA FP = change in binding of human HNF4A to DNA, primary screen, biochemical, fluorescence polarization, FITC-DNA. activity change, % at 10 µM. 1 h. Hepatocyte nuclear factor 4-alpha (Homo sapiens), P41235. actives 0.3% (n = 360,000). AID 1224865, 2016; in the data active = activity change above about 30%, passing the limit was not always enough;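 also: controls were the assay level and a saturating level of protein; the project sought stronger binding though the title names inhibitors; some compounds called inactive have numbers as strong as hits; positive values seem to mean higher polarization but the record does not say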
Target sequence (P41235 whole entry, looked up): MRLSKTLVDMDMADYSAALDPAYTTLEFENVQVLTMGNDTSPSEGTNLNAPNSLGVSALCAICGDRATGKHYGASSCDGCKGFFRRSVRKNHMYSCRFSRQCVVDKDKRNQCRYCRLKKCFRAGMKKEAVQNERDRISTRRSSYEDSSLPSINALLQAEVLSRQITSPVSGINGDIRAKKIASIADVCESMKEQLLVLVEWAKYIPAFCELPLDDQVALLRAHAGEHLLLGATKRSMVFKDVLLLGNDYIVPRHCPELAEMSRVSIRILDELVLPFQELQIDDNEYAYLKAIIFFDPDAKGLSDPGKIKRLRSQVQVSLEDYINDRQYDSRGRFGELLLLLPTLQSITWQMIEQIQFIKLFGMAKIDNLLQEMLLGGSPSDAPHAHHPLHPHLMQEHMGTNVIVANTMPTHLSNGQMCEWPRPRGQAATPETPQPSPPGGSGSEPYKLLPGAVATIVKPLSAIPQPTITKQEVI
Ecoli growth = E. coli growth inhibition, primary screen, OD600 | Escherichia coli growth, 23 h; hits give low values | OD600 absorbance (no concentration beside the values) | actives 0.21% (n = 330,000) | AID 1053175, 2014;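 active = OD600 absorbance below the run mean of sample wells minus 3.6 SD, in any replicate, cut at about 0.56 in these data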;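 also: stock transfer was 300 nL into about 60 µL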
rRNA inh HTS OD600 = second read-out of rRNA inh HTS, no call of its own (marks repeat the call); OD600 change, %; measured here: OD600 growth;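 optical density of the mix in the first replicate; 0 = DMSO median and -100 = no signal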
rRNA inh HTS RFP = also measured in rRNA inh HTS; calls as there; RFP signal change, %; measured here: RFP humanized mutant strains;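 first replicate; 0 = DMSO median and -100 = no signal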
The depositor's hits bear a star; i = inactive; · = no result given; & = joins results of further samples.

mol	ALR inh	Vif TR-FRET	rRNA inh HTS	rRNA inh HTS OD600	rRNA inh HTS RFP	FGF22 binding	MLL AF4-AF9 inh	HNF4A DNA FP	Ecoli growth
Fc1cnc(N2CCOCC2)nc1N1CCc2ccccc21	35	21%	·	·	·	·	·	-1.3	0.65
COC(=O)c1cccc2c1NC(=O)C2=O	-7	9%	-14	-2	-2.5	i	1.5	2.8	0.68
CCCC(=O)N1CCCC1(C)C(=O)NCc1ccc(F)cc1Cl (centres undefined)	·	·	5	8	3.3	i	-0.4	3.2	·
Cc1cc(C)cc(NS(=O)(=O)c2ccc3oc(=O)ccc3c2)c1	-7	1%	·	·	·	·	·	0.9	0.68
CCC(=O)Nc1ccc2c(c1)OC[C@@H](C)N(C(=O)Cc1ccccn1)C[C@@H](C)[C@H](OC)CN(C)C2=O	·	·	1	-2	0.4	i	-1.4	·	·
CCOC(=O)c1sc(NC(C)=O)cc1C	-5	2%	3	5	-1.8	i	-5.1	1.0	0.68
COc1cc2c(cc1OC)CN(CCC(=O)c1ccc(Br)cc1)CC2	24	10%	3	-5	0.8	i	-5.0	2.3	0.62
CCOc1ccc2oc(C(=O)OC(C(=O)NC(N)=O)C(C)C)c(C)c2c1 (centres undefined)	-1	20%	-8	3	4.7	i	1.0	-3.7	0.77
Cc1ccc(C)c(NC(=O)CN2C(=O)c3ccccc3C2=O)c1	2	·	·	·	·	i	-0.2	0.0	0.69
C[C@@H]1CCCCO[C@H](CN(C)C(=O)Nc2cccc3ccccc23)[C@H](C)CN([C@H](C)CO)C(=O)c2cc(NC(=O)Cc3ccccc3)ccc2O1	·	·	6	4	4.8	i	-1.7	·	·
O=C(C[C@@H]1C=C[C@H](NC(=O)C2CCC2)[C@H](CO)O1)NCc1ccncc1	·	·	-1	3	-1.5	i	-1.2	·	·
Cn1cc(CNCc2ccc(OC(F)(F)F)cc2)c(-c2ccc3c(c2)OCCO3)n1	0	10%	-5	-9	2.9	i	-4.3	0.1	0.67
O=C(c1ccc(CN2CCc3ccccc3C2)cc1)N1CCc2ccccc2C1	-27	25%	·	·	·	·	·	-2.5	0.71
CC1(C)Cc2cccc(OCC(=O)OCc3nnc(-c4ccc([N+](=O)[O-])cc4)o3)c2O1	·	-13%	0	13	-1.8	i	0.3	-3.1	0.67
Oc1ccc(-c2[nH]nc(-c3ccccc3)c2-c2nc3ccccc3[nH]2)cc1	84*	1%	·	·	·	·	·	0.3	0.71

Next part:
mol	ALR inh	Vif TR-FRET	rRNA inh HTS	rRNA inh HTS OD600	rRNA inh HTS RFP	FGF22 binding	MLL AF4-AF9 inh	HNF4A DNA FP	Ecoli growth
CN(Cc1ccccc1)C(=O)CCc1ccccc1	26	1%	·	·	·	·	·	1.7	0.66
O=C(COc1ccc(Cl)cc1)OCc1csc(Nc2ccccc2)n1	-29	·	·	·	·	·	·	6.2	0.72
CC12CN3CCN(CC(C3)/C1=N/N=C/c1cccc([N+](=O)[O-])c1)C2	57	-6%	12	7	2.5	i	-0.7	-3.6	·
COc1ccc(N2CCN(C(=O)C3CCCN(S(=O)(=O)c4cccc5cccnc45)C3)CC2)cc1 (centres undefined)	14	12%&-1%	-4	-11	2.2	i	5.9	2.9	0.74
CCCC(=O)N1CCC2(CC1)CN(C(=O)COC)[C@H](CO)c1c2c2ccc(OC)cc2n1C	·	·	-1	0	-1.9	i	-0.6	·	·
Cc1ccc(-c2nn3c(C)nnc3s2)cc1NC(=O)c1ccc(OC(C)C)cc1	-7	-10%	-2	-2	2.3	i	-3.8	2.9	0.77
O=C(CCn1cnc2ccccc21)N/N=C/c1ccccc1O	29	-9%	5	7	-1.3	i	2.1	-0.6	·
CCCCN(C(=O)c1cccc2c(=O)c(C)c(-c3ccccc3)oc12)c1ccccc1	·	0%	-26	-35	-6.3	i	-0.1	4.5	0.64
C[C@@H]1CCCCO[C@@H](CN(C)C(=O)CCC(F)(F)F)[C@H](C)CN([C@H](C)CO)C(=O)c2cc(NC(=O)C3CCCCC3)ccc2O1	·	·	-2	-7	-1.0	i	-0.5	·	·
CN1C(=O)c2cc(NS(C)(=O)=O)ccc2OC[C@@H]2O[C@@H](CC(=O)N3CCOCC3)CC[C@H]21	·	·	3	1	0.6	i	-0.9	·	·
O=C(COC(=O)C1(c2ccc(Cl)cc2)CCCC1)NCc1ccco1	42	8%	-29	-28	-3.6	i	3.3	-2.2	0.65
O=C(c1ccccn1)N1CC=C(c2ccccc2)CC1	·	4%	5	-2	1.2	i	-1.1	0.1	0.69
O=C(CSc1nc(O)cc(=O)n1-c1ccccc1)NC1CCCCC1	9	0%	·	·	·	·	·	6.5	0.74
COc1ccc(OC)c(S(=O)(=O)N2CCC3(CC2)OCCN3S(=O)(=O)c2cccs2)c1	-2	4%	-11	-9	3.5	i	0.4	-3.3	0.66
COc1ccc(C(=O)NNC(=O)c2ccccc2[N+](=O)[O-])cc1[N+](=O)[O-]	-28	4%	9	5	1.9	·	-0.6	-1.6	0.72

New compounds follow
mol	ALR inh	Vif TR-FRET	rRNA inh HTS	rRNA inh HTS OD600	rRNA inh HTS RFP	FGF22 binding	MLL AF4-AF9 inh	HNF4A DNA FP	Ecoli growth
CNC[C@H](CC1CCCCC1)NC[C@H](NCCC1CCCC1)[C@H](C)O	·	·	1	1	12	i	5.0	-1.2	0.79
O=C(C[C@H]1C=C[C@@H](NC(=O)c2ccncc2)[C@H](CO)O1)Nc1ccc(-c2ccccc2)cc1	·	·	-5	-2	0.6	i	0.3	·	·
C[C@H]1CN([C@@H](C)CO)C(=O)c2cccc(NS(C)(=O)=O)c2O[C@@H]1CN(C)C(=O)Nc1ccc2c(c1)OCO2	·	·	-3	2	0.6	i	-2.1	·	·
O=C(CN1C(=O)/C(=C/c2ccccc2)SC1=S)NC1C=CS(=O)(=O)C1 (centres undefined)	4	-4%	4	-3	3.7	i	-0.4	0.7	0.69
COC(=O)c1sccc1NC(=O)Nc1ccccc1Cl	41	·	9	1	1.4	i	-0.8	-4.2	0.68
CCOC(=O)c1c(C)[nH]c(C(=O)OCC(=O)Nc2ccccc2)c1C	1	-3%	8	12	-2.4	i	-4.3	-1.5	0.64
CN1C(=O)c2ccc(NC(=S)NC(=O)C(C)(C)C)cc2C1=O	20	-3%	·	·	·	·	·	2.6	0.7
COc1ccccc1NC(=O)CN1C(=O)NC(CC(C)C)C1=O (centres undefined)	·	-2%	·	·	·	·	·	2.9	0.72
COCCn1c(SCC(=O)Nc2cc(C(C)(C)C)nn2-c2ccccc2)nnc1-c1ccncc1	-2	·	·	·	·	·	·	-5.5	0.69
O=C1NC(=O)/C(=C\c2ccccc2OCc2ccccc2)S1	8	0%	-52	-75	-15	i	1.0	-0.7	0.66
CCN(CC(=O)Nc1c(F)cccc1F)C(=O)CCCOc1ccccc1	·	-7%	4	7	1.3	i	-2.0	1.0	0.71
O=C(O)c1ccc(COc2c(F)c(F)cc(F)c2F)o1	39	6%	·	·	·	·	·	-6.7	0.75
C/C(CC(=O)Nc1cc(C)ccn1)=N\NC(=O)c1cccc(F)c1	11	10%	7	9	-3.6	i	1.3	1.1	·
CC1=C(C(=O)N2CCOCC2)C(c2ccccc2F)NC(=O)N1 (centres undefined)	-1	7%	15	12	3.3	i	-1.3	0.9	0.7
CCOC(=O)c1oc2c(CN3CCCCC3C)c(O)ccc2c(=O)c1-c1ccc(OC)c(OC)c1 (centres undefined)	3	19%&4%	·	·	·	·	·	-3.3	0.68

Next compounds:
mol	ALR inh	Vif TR-FRET	rRNA inh HTS	rRNA inh HTS OD600	rRNA inh HTS RFP	FGF22 binding	MLL AF4-AF9 inh	HNF4A DNA FP	Ecoli growth
CN(C)C=NC(=O)c1cc(C(=O)c2ccc(Cl)cc2)c[nH]1	6	-9%	5	4	-3.6	i	-1.1	0.4	0.61
O=C(C1CCC1)N1CCN(S(=O)(=O)c2ccc(F)cc2)CC1	-4	3%	2	15	-2.1	i	-31	-2.2	0.68
CCOC(=O)C1(CC2CCCCO2)CCN(Cc2cc(F)ccc2-n2cccn2)CC1 (centres undefined)	-9	-4%	16	5	-2.2	·	-1.7	0.9	0.63
C[C@@H]1CN([C@@H](C)CO)C(=O)c2cc(-c3ccc(C#N)cc3)cnc2O[C@H]1CN(C)C(=O)c1cccnc1	·	·	-5	-8	-0.4	i	-1.9	·	·
O=C(CCn1nnc(-c2cccs2)n1)NC1CCCCC1	1	-8%	-1	7	-2.7	i	-5.6	3.4	0.74
CC(NC(=O)CNC(=O)c1ccco1)c1ccc(S(N)(=O)=O)cc1 (centres undefined)	-1	·	1	-2	-2.0	i	-0.3	-2.2	0.67
COc1ccc(/C=C2/NC(=O)CNC2=O)cc1	·	-3%	2	8	-0.5	i	0.4	-0.2	0.64
CCN(CC(=O)Nc1c(F)cccc1F)C(=O)CCCNC(=O)c1ccc(Cl)cc1	-14	-4%	3	-1	1.3	i	7.0	-2.8	0.67
CN1OC[C@@H]2CN(C(=O)C(C)(C)C)[C@H](c3cccc(Br)c3)C[C@@H]21	·	4%	19	11	4.1	i	-0.2	4.4	·
C[C@@H](NC(=O)C[C@H]1CC[C@@H]2[C@H](COC[C@H](O)CN2C(=O)Nc2cccc(Cl)c2)O1)c1ccccc1	·	·	-57	-79	-21	i	2.6	·	·
COc1cc(C2C(C#N)=C(N)Oc3c2c(-c2ccccc2)nn3-c2ccccc2)cc(OC)c1OC (centres undefined)	60	-3%	·	·	·	·	·	0.8	0.72
O=c1ncn(-c2ccccc2F)c2ncccc12	-7	0%	·	·	·	·	·	-2.0	0.67
O=C(NCC(c1ccco1)N1CCCC1)c1cc(S(=O)(=O)N2CCCCC2)ccc1Cl (centres undefined)	5	·	1	-6	6.4	i	4.0	-3.5	0.65
O=C(CCc1nc(-c2ccccc2F)no1)NC1CCCCCC1	4	72%	·	·	·	·	·	-1.2	0.78
Cc1c(CC(=O)N2CCN(C(=O)C3COc4ccccc4O3)CC2)c(=O)oc2cc(O)c(Cl)cc12 (centres undefined)	-118	·	-31	-33	-4.6	i	-17	-0.2	·

Records above marked active in ALR inh.
| SMILES | ALR inh | Vif TR-FRET | rRNA inh HTS | rRNA inh HTS OD600 | rRNA inh HTS RFP | MLL AF4-AF9 inh |
| --- | --- | --- | --- | --- | --- | --- |
| Oc1ccc(-c2[nH]nc(-c3ccccc3)c2-c2nc3ccccc3[nH]2)cc1 | 84* | 1% | · | · | · | · |

(next part)
mol	ALR inh	Vif TR-FRET	rRNA inh HTS	rRNA inh HTS OD600	rRNA inh HTS RFP	FGF22 binding	MLL AF4-AF9 inh	HNF4A DNA FP	Ecoli growth
CC1=CC(C)(C)NC(=S)N1c1ccc(C)c(C)c1	-9	-1%	·	·	·	·	0.6	-3.1	0.71
CCS(=O)(=O)Nc1ccc2c(c1)C(=O)N(C)C[C@H](OC)[C@H](C)CN(CCC(F)(F)F)[C@@H](C)CO2	·	·	-3	-4	-0.4	i	-2.8	·	·
O=C(O)CC12CC3CC(C1)CC(n1ncc(NCc4ccccc4)c(Cl)c1=O)(C3)C2	-4	-6%	-3	-7	-3.6	i	3.2	-2.1	0.67
O=C(O)c1ccc(-n2nnnc2SCc2ccccc2F)cc1	-7	3%	-10	-6	-2.6	i	-2.5	5.3	0.71

Screening results (PubChem)

This is a subset; count on the stated rates, not on these rows.
